BJeLR viability = kills HRASV12-expressing BJeLR cells | BJeLR (HRASV12) viability, CellTiter-Glo ATP luminescence, 48 h; reference of the scale not given here | 300,000 compounds, 0.17% hits | inhibition, % (no concentration beside the values);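 active = replicate mean above 50%; inconclusive = above 50% but judged a plate artefact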;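 also: 50 nL library stock added to about 25 µL; numbers are from one replicate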
Mtb hypoxia rep = Mtb hypoxia fluorescent reporter inhibition; AID 1159583; M. tuberculosis hypoxia-regulated fluorescent reporter, fluorescence; 300,000 compounds, 0.1% hits; fluorescence inhibition, % (concentration not given with the values);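 active = 35 to 45% if threefold the growth effect, above 45% if 1.5-fold the growth effect; inactive = the rest, general growth blockers included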;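 also: wells of about 50 µL received 100 nL stock; 0% = vehicle wells and 100% = reference inhibitor wells; whole bacteria with a GFP reporter of the hypoxia response; strong numbers were not always called active; many hits fall short of the cut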
RN4220 kill = kills Staphylococcus aureus RN4220. AID 1259311. S. aureus RN4220 growth, OD600, 16 h. 330,000 compounds, 0.33% hits. inhibition, % (concentration not given with the values);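 active = z-score of -3 or lower and OD600 up to 0.18 on both plates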;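 also: plate controls were untreated cells for no effect and reference antibiotic for full effect; stock transfer was 100 nL into about 80 µL; one replicate is shown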
Autofluor counter = counter-screen for toxin protease inhibitors: compound fluorescence | compound autofluorescence counterscreen, microsphere flow cytometry; active compounds read high | fluorescence intensity (concentration not given with the values) | 360,000 compounds, 3.1% hits;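 active = at least 3 SD above the mean of all compounds, about 16000 in these data; inconclusive = too few beads counted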;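 also: 100 nL of 1 mM stock went into each well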
ugtP null kill = kills S. aureus RN4220 lacking UgtP; S. aureus RN4220 ugtP deletion, OD600 growth, 16 h; some inactives read as strong as hits; AID 1259309; growth inhibition, % (test concentration not listed); 330,000 compounds, 0.54% hits;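 active = z-score under -3 and OD600 up to 0.15 on both plates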;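 also: plate controls were untreated wells for no effect and antibiotic for full effect; wells of about 80 µL received 100 nL stock; the first replicate is given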
PrP UTR inh = suppresses PrP 5' UTR mRNA reporter expression; 340,000 compounds, 0.35% hits; inhibition, % (no concentration beside the values); AID 488862; cell-based PrP 5' UTR mRNA reporter, plate reader;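 active = every replicate at 50% or more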;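 also: 0 = median of the neutral control wells; tested in H4 reporter cells; numbers are from one replicate; inactives centre near -14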
Mtb hypoxia rep growth = recorded beside Mtb hypoxia rep, whose call it bears; growth inhibition, %; measured here: M. tuberculosis growth (absorbance);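 0% = vehicle and 100% = reference antibiotic; read after six days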
* marks the source's active call; other numbers are inactive results; ? = inconclusive; nt = no result given. Rows were taken by chance; any-hit rate near 4%.

Results follow in this order: BJeLR viability	Mtb hypoxia rep	Mtb hypoxia rep growth	RN4220 kill	Autofluor counter	ugtP null kill	PrP UTR inh
1. Cc1ccc(CN2C(=O)CCC2C(=O)NCc2ccco2)cc1 (centres undefined)
→ -6	5	-5	5.2	2988	-2	-17
2. O=C(Cn1ncc(N2CCOCC2)c(Br)c1=O)c1ccc(Cl)cc1
→ -7	-6	6	1.4	4925	-7	-39
3. Cc1cc(S(=O)(=O)Nc2ccc3c(c2)COC3=O)ccc1F
→ -9	-9	-2	5.4	4832	-5	-19
4. CC(=O)Nc1ccc(S(=O)(=O)Nc2cccc(-c3cn4cccnc4n3)c2)cc1
→ 1	7	0	5.6	2335	14	3
5. Cc1ccccc1-n1c(-c2ccco2)n[nH]c1=S
→ 6	25	26	2.3	10515	-2	-32
6. Cc1ccccc1N(C(=O)Cn1nnc(-c2ccc(F)cc2)n1)C(C(=O)NC(C)(C)C)c1ccncc1 (centres undefined)
→ -2	9	-3	1.7	4174	8	-32
7. COc1ccccc1CNC(=O)c1ccc(CS(=O)(=O)c2ccccc2)o1
→ -19	nt	nt	1.1	5563	7	-21
8. O=C(CN(Cc1ccccc1)C(=O)CCC(=O)Nc1ccccn1)NCc1ccco1
→ 5	nt	nt	1.6	4369	9	-5
9. CSc1ccccc1OCc1cc(C(=O)NCc2cccc(C)n2)no1
→ 4	14	11	4.7	5294	0	-61
10. CC(C)C[C@H](NC(=O)C1CCN(S(=O)(=O)c2ccccc2)CC1)C(=O)NCc1cccnc1
→ 0	6	1	3.8	5009	11	-15
11. COc1ccc(NC(=O)c2c3c(nc4ccccc24)CCC3)cc1
→ 8	5	1	2.7	7946	10	-2
12. O=C(Cc1cccc2ccccc12)NNC(=O)Nc1cccc(Cl)c1
→ 1	nt	nt	4.3	2412	-6	-1
13. O=C(Nc1ccc(NC(=O)c2cccnc2)cc1)c1ccccc1
→ 3	3	-1	-0.4	4661	4	-17
14. CN(C)CCOc1ccc(C(=C(CCCl)c2ccccc2)c2ccccc2)cc1
→ nt	19	16	23	nt	76	nt
15. CCCCC(=O)OCc1c(-c2ccccc2)ncc2ccccc12
→ nt	7	4	1.4	3552	11	-18
16. Cc1ccc([N+](=O)[O-])cc1NC(=O)Nc1ccc(S(N)(=O)=O)cc1
→ 4	-6	0	-4.6	3349	3	-18
17. N=C(N)c1c(O)n(C2CCCCC2)c(=O)n(C2CCCCC2)c1=O
→ -6	nt	nt	-14	2147	-21	54
18. Cc1cc(=O)oc(C)c1C(=O)NCCc1ccc(F)cc1
→ 1	14	6	4.2	4216	2	-10
19. Cc1ccc2nc3c(cc(C(=O)NC4CCCCC4)c(=N)n3C3CCCCC3)c(=O)n2c1
→ 3	2	1	-0.1	4030	5	-30
20. CCc1ccc(OCC(O)CN2CCN(c3ccc(OC)cc3)CC2)cc1 (centres undefined)
→ -9	-9	10	-3.6	4142	26	-17
21. O=C(COC(=O)C1CCN(S(=O)(=O)c2c(Cl)cccc2Cl)CC1)NCc1ccco1
→ -7	5	14	5.9	?	3	-11
22. Cc1ccc(S(=O)(=O)CC(CN2CCOCC2)N2CCOCC2)cc1 (centres undefined)
→ -10	10	6	2.7	2503	12	-7
23. O=C(Nc1ccccc1C(=O)N1CCCCCC1)c1ccc(Cl)cc1
→ 1	8	-1	-1.3	4943	1	-35
24. COc1ccc(C=NNC(=O)c2cccc(COCC(F)(F)C(F)F)c2)cc1
→ nt	0	4	0.0	nt	5	nt
25. O=C(NCC(=O)N1CCN(S(=O)(=O)/C=C/c2ccccc2)CC1)c1ccc(Cl)cc1
→ 6	5	-3	-0.2	4171	6	11
26. COc1ccccc1-n1c2nc3ccccc3nc2c2c(=O)n(-c3cc(C)cc(C)c3)cnc21
→ -10	7	12	1.7	2157	29	8
27. Oc1cccc(Nc2ncnc3ccccc23)c1
→ 2	-4	15	5.0	10790	-6	-7
28. Cc1cc(C(=O)O)ccc1NC=C1CCCC(C)C1=O (centres undefined)
→ nt	-2	7	2.2	nt	1	nt
29. CCC(NC(=S)Nc1ccccc1)C(=O)O (centres undefined)
→ 3	4	0	0.7	2208	6	-33
30. O=C(CSc1nnc2c(Cl)cc(C(F)(F)F)cn12)Nc1ccc2c(c1)OCO2
→ -7	-5	0	-1.5	20358*	-2	-41
31. CCc1nnc(NS(=O)(=O)c2ccc(NC(=S)NC(=O)/C=C/c3ccc(C(C)C)cc3)cc2)s1
→ -5	9	5	15	12445	68	-18
32. CCC(=O)N/C(=N/c1nc(C)cc(C)n1)Nc1ccc(OC)cc1
→ -8	16	12	3.1	11073	-6	-2
33. COCCCNC(=S)N(CCN(C)C)Cc1cc2cc3c(cc2[nH]c1=O)OCCO3
→ 3	15	6	3.6	3546	16	-40
34. CCCNC(=O)C(Cc1ccccc1)NC(=O)c1ccc(-c2ccccc2)cc1 (centres undefined)
→ nt	9	9	7.5	3174	0	10
35. COc1ccc(CN2CCCC(C(=O)N3CCc4ccccc4C3)C2)cc1OC (centres undefined)
→ 5	4	20	2.4	4174	4	-12
36. CCOC(=O)c1sc2nc(C)nc(NCc3cccnc3)c2c1C
→ 0	-2	17	2.5	5227	17	-29
37. CCCCn1c(SCC(=O)OCC)nc2c1c(=O)[nH]c(=O)n2C
→ -11	5	4	-12	5531	-3	-10
38. CC1=NN(c2ccc([N+](=O)[O-])cc2)C(=O)/C1=C\N(C)C
→ 14	9	2	45	2108	10	-32
39. Cc1cc(C)nc(-n2nc(C)cc2NC(=O)c2cc3ccccc3oc2=O)n1
→ 6	20	12	-0.7	4045	1	-6
40. COc1cccc(C(=O)NC2(C(F)(F)F)N=C3SCCN3C2=O)c1 (centres undefined)
→ -10	-5	5	3.0	10216	-1	-14

An excerpt of these results, with each value named:
39) Cc1cc(C)nc(-n2nc(C)cc2NC(=O)c2cc3ccccc3oc2=O)n1
  BJeLR viability: 6
  Mtb hypoxia rep: 20
  Mtb hypoxia rep growth: 12
  RN4220 kill: -0.7
  Autofluor counter: 4045
  ugtP null kill: 1
  PrP UTR inh: -6

23) O=C(Nc1ccccc1C(=O)N1CCCCCC1)c1ccc(Cl)cc1
  BJeLR viability: 1
  Mtb hypoxia rep: 8
  Mtb hypoxia rep growth: -1
  RN4220 kill: -1.3
  Autofluor counter: 4943
  ugtP null kill: 1
  PrP UTR inh: -35

24) COc1ccc(C=NNC(=O)c2cccc(COCC(F)(F)C(F)F)c2)cc1
  BJeLR viability: nt
  Mtb hypoxia rep: 0
  Mtb hypoxia rep growth: 4
  RN4220 kill: 0.0
  Autofluor counter: nt
  ugtP null kill: 5
  PrP UTR inh: nt

28) Cc1cc(C(=O)O)ccc1NC=C1CCCC(C)C1=O (centres undefined)
  BJeLR viability: nt
  Mtb hypoxia rep: -2
  Mtb hypoxia rep growth: 7
  RN4220 kill: 2.2
  Autofluor counter: nt
  ugtP null kill: 1
  PrP UTR inh: nt

(cont.)
Results follow in this order: BJeLR viability	Mtb hypoxia rep	Mtb hypoxia rep growth	RN4220 kill	Autofluor counter	ugtP null kill	PrP UTR inh
41. CCOC(=O)C1=CN(C(C)C)CCC1=O
→ nt	4	2	-0.8	2986	5	-19
42. CC1(C)CC(=O)C2=C(C1)OC(N)=C(C#N)C21C(=O)N(Cc2ccccc2Cl)c2ccccc21 (centres undefined)
→ 5	nt	nt	0.9	2429	-15	-15
43. Nc1nc2c(F)cccc2s1
→ -4	-1	0	0.4	9711	-4	-13
44. COc1ccc(NC(=O)NCc2cccnc2)cc1OC
→ nt	3	4	2.7	9536	-7	-29
45. CCN(CC)S(=O)(=O)c1ccc2[nH]cc(C(=O)NCCCN3CCCCC3C)c(=O)c2c1 (centres undefined)
→ -7	9	11	6.5	11584	-4	-30
46. Cc1csc(=O)n1CC(=O)OCC(=O)Nc1ccc(Cl)cc1F
→ -3	10	27	1.1	4446	10	4
47. NS(=O)(=O)c1ccc(CCNC(=O)CN2CCN(c3ccccc3O)CC2)cc1
→ 4	11	8	-1.0	2169	8	-7
48. O=C(NC1CCCCC1)C(c1ccccc1)N(C(=O)Cc1ccsc1)c1ccccc1 (centres undefined)
→ 5	1	0	1.9	10128	6	-15
49. Cc1nc(NC(=O)c2ccc([N+](=O)[O-])cc2Cl)sc1C(=O)N(C)C
→ -8	-7	8	5.7	2228	-2	-5
50. CSCCC1NC(=O)N(CC(=O)Nc2ccc(Cl)c(S(=O)(=O)N3CCOCC3)c2)C1=O (centres undefined)
→ nt	5	4	0.4	2880	1	-1
51. Cc1ccc(S(=O)(=O)N2CCCC2C(=O)NCc2ccccc2F)cc1 (centres undefined)
→ -2	2	2	1.5	4194	2	-17
52. CCN(Cc1ccccc1)C(=O)CSc1nncn1C
→ 7	0	4	0.1	4052	1	-14
53. CN(CC(=O)Nc1ccccc1F)CC(=O)Nc1ccccc1Br
→ -3	1	-3	3.2	4166	3	-1
54. CC(NC(=O)OCc1ccccc1)C(=O)Oc1cc2oc(=O)cc(-c3ccccc3)c2cc1Cl (centres undefined)
→ 13	7	5	1.4	2393	-1	-16
55. C=C1C2(C(=O)NCc3ccco3)CCC(C2)C1(C)C (centres undefined)
→ -2	nt	nt	3.2	4414	6	-12
56. CCNc1nc(NC(C)C)nc(OCCNS(=O)(=O)c2cc(C)ccc2C)n1
→ 2	9	-5	2.3	2991	-8	1
57. CCCn1c(NC(=O)C2CCN(S(=O)(=O)c3cccs3)CC2)nc2ccccc21
→ -2	4	11	-5.4	4708	12	10
58. O=C1C=CN(C(=O)Oc2ccccc2)CC1
→ -11	15	7	3.1	2577	2	-13
59. CCc1ccc(CNC(=O)C2CCN(S(=O)(=O)N3CCCC3)CC2)cc1
→ 4	5	-4	4.3	4706	9	-20
60. CC(C)OC(=O)c1cccnc1N1CCN(c2cccc(Cl)c2)CC1
→ 3	14	4	1.2	3885	32	-27

Overlap with the part before: three entries, then new ones.
Results follow in this order: BJeLR viability	Mtb hypoxia rep	Mtb hypoxia rep growth	RN4220 kill	Autofluor counter	ugtP null kill	PrP UTR inh
58. O=C1C=CN(C(=O)Oc2ccccc2)CC1
→ -11	15	7	3.1	2577	2	-13
59. CCc1ccc(CNC(=O)C2CCN(S(=O)(=O)N3CCCC3)CC2)cc1
→ 4	5	-4	4.3	4706	9	-20
60. CC(C)OC(=O)c1cccnc1N1CCN(c2cccc(Cl)c2)CC1
→ 3	14	4	1.2	3885	32	-27
61. O=C(Cn1ccc2ccccc2c1=O)NCCC(=O)N1CCN(c2cccc(C(F)(F)F)c2)CC1
→ 8	13	5	9.0	5803	6	-33
62. Cc1nc2c(C)cccn2c(=O)c1NC(=O)c1cccc2ccccc12
→ 10	-7	-2	17	7466	4	-12
63. COc1ccc(C(=O)Nc2ncccc2C)cc1S(=O)(=O)N1CCCc2ccccc21
→ -3	-4	-12	-6.2	?	-8	-12
64. COc1ccc(OC)c(C=NNC(=O)CC(=O)NC2CCCCC2)c1
→ nt	16	1	1.1	nt	4	nt
65. COc1ccccc1CCc1nnc(N)s1
→ -16	1	-8	3.4	3150	0	-16
66. Cc1ccc(NC(=O)c2cc([N+](=O)[O-])ccc2NCc2cccnc2)cc1Cl
→ 1	9	6	1.9	?	-4	-27
